From PubChem BioAssay
TRPML1 blocker = qHTS for Inhibitors of the Human Mucolipin Transient Receptor Potential 1 (TRPML1) | activity change, negative = inhibition, % (test concentration not listed) | Mucolipin-1 (Homo sapiens), Q9GZU1 | TRPML1-inducible cells, Ca2+ dye fluorescence, FDSS; hits give low values; inhibition of EC80 agonist-evoked calcium signal | hit rate 0.02% among 390,000 | AID 624415, 2012; in the data active means activity change below about -50%; inconclusive means about -30% to -50%; inactive means above about -30%;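 also: stimulus is agonist 54-4 at its EC80 concentration; % is scaled to controls: 0 for no effect and ±100 for the full control effect; compound concentration not given in the record; the text of the record puts the active cut at -80%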
Target sequence (Q9GZU1 whole entry, looked up): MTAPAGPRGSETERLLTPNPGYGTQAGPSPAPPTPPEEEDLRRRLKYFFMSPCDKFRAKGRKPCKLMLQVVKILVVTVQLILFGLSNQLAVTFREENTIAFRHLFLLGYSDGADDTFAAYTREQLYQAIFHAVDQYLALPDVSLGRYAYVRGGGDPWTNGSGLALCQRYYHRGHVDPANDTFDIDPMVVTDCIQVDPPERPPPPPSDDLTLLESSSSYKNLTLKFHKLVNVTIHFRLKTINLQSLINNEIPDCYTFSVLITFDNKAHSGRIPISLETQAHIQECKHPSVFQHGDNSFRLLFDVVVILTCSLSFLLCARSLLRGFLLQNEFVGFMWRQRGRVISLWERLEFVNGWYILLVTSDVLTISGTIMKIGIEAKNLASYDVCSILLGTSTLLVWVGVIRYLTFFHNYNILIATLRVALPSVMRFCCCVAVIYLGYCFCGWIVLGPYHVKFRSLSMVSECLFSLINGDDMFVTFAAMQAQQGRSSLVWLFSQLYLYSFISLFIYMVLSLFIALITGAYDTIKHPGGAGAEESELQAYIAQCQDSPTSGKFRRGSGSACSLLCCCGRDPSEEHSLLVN
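Tet-induced TRPML1-DL cells loaded with Ca8 no-wash calcium dye were read kinetically on FDSS. Compound addition was followed by EC80 agonist 54-4 (4 uM final); inhibition was read over 110 s.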
TRPML1 ag = qHTS for Agonists of the Human Mucolipin Transient Receptor Potential 1 (TRPML1). Mucolipin-1 (Homo sapiens), Q9GZU1. TRPML1-expressing cells, Ca2+ dye fluorescence, FDSS; host cell line not named in the record; reference of the full effect not given here. activation, % (test concentration not listed). hit rate 0.12% among 410,000; in the data active = activation above about 50%; inconclusive = about 30% to 50%; inactive = below about 30%; also: 0% is about no effect; the text of the record puts the active cut at 80%
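Cells: TRPML1-DL, 1X Tet inducer, ~16 h at 37 degrees C/5% CO2. Dye: ABD Ca8 no-wash + quencher, 45-90 min RT. Read: 10 s baseline, compound add, 110 s agonist phase; 54-4 EC80 (4uM final), 110 s antagonist phase.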
D2 potentiator = Beta-Arrestin HTS for Positive Allosteric Modulators of the Human D2 Dopamine Receptor: Potentiators | hit rate 0.23% among 360,000 | DiscoveRx D2 beta-arrestin cells, luminescence, 90 min; 100% = 57 uM dopamine signal | potentiation, % (concentration not given with the values) | D(2) dopamine receptor (Homo sapiens), P14416; active = potentiation of 50% or more; inconclusive = 30% to 50%; inactive = 30% or less;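 also: compound concentration not given in the record; tested on top of an EC20 dose of dopamine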
Target sequence (P14416 whole entry, looked up): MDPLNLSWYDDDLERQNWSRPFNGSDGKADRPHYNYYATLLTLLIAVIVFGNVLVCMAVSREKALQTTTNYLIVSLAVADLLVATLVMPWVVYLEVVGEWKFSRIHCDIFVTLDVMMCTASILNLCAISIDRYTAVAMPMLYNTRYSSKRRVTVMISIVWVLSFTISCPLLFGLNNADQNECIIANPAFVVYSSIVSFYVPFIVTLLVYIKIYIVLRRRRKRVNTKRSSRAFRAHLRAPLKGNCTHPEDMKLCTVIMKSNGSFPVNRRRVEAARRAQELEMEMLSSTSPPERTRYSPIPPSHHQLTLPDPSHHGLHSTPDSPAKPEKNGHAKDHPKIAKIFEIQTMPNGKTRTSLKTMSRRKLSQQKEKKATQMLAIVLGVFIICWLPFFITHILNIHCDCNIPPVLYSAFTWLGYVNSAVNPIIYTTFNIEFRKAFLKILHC
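PathHunter D2 cells, attached overnight at 37 deg C, received compound in DMSO plus dopamine at EC20 (50 nM final) for 90 min at 37 deg C. Beta-arrestin recruitment was read as luminescence after 1 h with detection reagent at ambient temperature.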
PINK1 modulator = A Quantitative High throughput Screen to Identify Chemical Modulators of PINK1 Expression; PINK1 immunofluorescence, high-content cytometry, 24 h; Potency, µM (doses to about 76.6 µM), without a hit: at the highest dose activation (PINK1 increase), actives largely listed as activators; hit rate 0.2% among 410,000; active = well fitted activation curve with a large enough effect; inconclusive = small, poorly fitted or top-dose-only effect; inactive = flat fitted curve, though single readings scatter; cell line not stated here;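 also: potency is read from the fitted curve at half-maximal effect; % of control where 0% means no effect; nearly all actives have a fitted effect of over 65% in size; a mitochondrial uncoupler was the plate control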
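Fluorescence from anti-PINK1 antibody, together with nuclear and cell stains, was scanned on a laser-scanning cytometer. Before staining, stable-line cells were incubated 24 hours with compounds at 5 concentrations; primary antibody 12 h at 10 degrees C.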
Six1-Eya2 blk = qHTS Assay for Inhibitors of the Six1/Eya2 Interaction | Homeobox protein SIX1 (Homo sapiens) + Protein phosphatase EYA2 (Homo sapiens), … | AlphaScreen GST-Six1/His-Eya2 binding, biochemical; hits give low values; control for the full effect not named in the record | activity change, % (no concentration beside the values) | hit rate 0.56% among 360,000 | AID 651725, 2012; in the data active = activity change below about -65%; inconclusive = about -30% to -65%; inactive = above about -30%; also: % is scaled to controls: 0 for no effect and ±100 for the full control effect; compound concentration not given in the record
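Six1/Eya2 binding was read as AlphaScreen signal after compounds were pinned into GST-Six1 plus His-tagged Eya2 (5X stock 250/500 nM) in pH 8.0 Tris/NaCl/TCEP buffer, beads added, then incubated 1 h, 37 C, dark.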
D2 agonist = Beta-Arrestin HTS for Positive Allosteric Modulators of the Human D2 Dopamine Receptor: Agonists; AID 624465, 2012; DiscoveRx PathHunter D2 beta-arrestin, luminescence, 90 min; 100% = 57 uM dopamine signal; hit rate 0.084% among 360,000; D(2) dopamine receptor (Homo sapiens), P14416; activation, % (no concentration beside the values); in the data active = activation above about 40%; inconclusive = about 15% to 40%; inactive = below about 15%; also: compound concentration not given in the record; the text of the record calls up to 30% inactive
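Agonist mode: compounds alone added to overnight-plated D2 PathHunter cells for 90 min at 37 C, with 57 uM final dopamine (EC100) defining full response. Beta-arrestin recruitment detected by chemiluminescent reagent, read after 1 h at ambient temperature.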
The depositor's hits bear a star; & = joins results of further samples; [ ] = another dose, or the depositor's remark.

What do the screens show for `Cc1oc(-c2ccc(Cl)cc2)nc1CS(=O)CC(=O)NC(C)c1ccccc1` (configuration not stated)?
TRPML1 blocker: 16; TRPML1 ag: 2.8; D2 potentiator: -3; PINK1 modulator: -0.9%; Six1-Eya2 blk: -7; D2 agonist: -3.6

Results for COc1ccc(C(=O)NC2CC(C)(C)Cc3c2cnn3-c2ccccc2)c(OC)c1 (configuration not stated) ?
TRPML1 blocker: -5; TRPML1 ag: 5.0; D2 potentiator: 12; PINK1 modulator: 8.0%; Six1-Eya2 blk: -3; D2 agonist: 1.5

Results for O=C(CCCSc1nc2sc3c(c2c(=O)[nH]1)CCC3)NCCO ?
TRPML1 blocker: 13; TRPML1 ag: 0.7; D2 potentiator: -7; PINK1 modulator: -1.1%; Six1-Eya2 blk: 3; D2 agonist: -1.6

How did Cc1ccccc1Cn1cc(S(=O)(=O)c2ccc(C(C)C)cc2)c(=O)c2cc3c(cc21)OCO3 do in these assays?
TRPML1 blocker: -10; TRPML1 ag: 0.6; D2 potentiator: -1; PINK1 modulator: 2.8%; Six1-Eya2 blk: -4; D2 agonist: 1.0

How did O=c1[nH]c(=O)c2nc3c4ccccc4c4ccccc4c3nc2[nH]1 do in these assays?
TRPML1 blocker: 24; TRPML1 ag: 16; D2 potentiator: -2; PINK1 modulator: inconclusive; Six1-Eya2 blk: inconclusive; D2 agonist: 6.6

What do the screens show for `COc1ccc(C(=O)NC(=S)NCc2ccc(-c3nc4ccccc4o3)cc2)cc1OC`?
TRPML1 blocker: -4; TRPML1 ag: 0.4; D2 potentiator: -12; PINK1 modulator: 21%[38.3 µM]; Six1-Eya2 blk: 0; D2 agonist: -1.6

What do the screens show for `CCC1Oc2ccc(C)cc2N(CC(=O)NCc2cccs2)C1=O` (configuration not stated)?
TRPML1 blocker: 3; TRPML1 ag: 1.4; D2 potentiator: 0; PINK1 modulator: 3.3%; Six1-Eya2 blk: 2; D2 agonist: 0.1

How did CCN(CC(=O)Nc1c(F)cccc1F)C(=O)CNC(=O)c1ccc(C)s1 do in these assays?
TRPML1 blocker: -2; TRPML1 ag: 0.7; D2 potentiator: -12; PINK1 modulator: 0.1%; Six1-Eya2 blk: 5; D2 agonist: -3.5

Results for COc1ccc(CCNC(=O)c2sc3nc4n(c(=O)c3c2C)CCCC4)cc1OC ?
TRPML1 blocker: -11; TRPML1 ag: -0.5; PINK1 modulator: -1.0%

How did CC1=Nc2cc(C(=O)NCc3ccccc3Cl)ccc2Sc2c(C)ccc(C)c21 do in these assays?
TRPML1 blocker: -11; TRPML1 ag: 1.8; PINK1 modulator: 0.9%

Results for OC1(c2ccccc2)CCN(Cc2ccccc2)CC1 ?
TRPML1 blocker: -6; TRPML1 ag: -0.5; D2 potentiator: -29; PINK1 modulator: -1.9%; Six1-Eya2 blk: 4; D2 agonist: -3.2

What do the screens show for `COC(=O)c1ccc(NC(=O)CNCc2ccncc2)cc1`?
TRPML1 blocker: -15; TRPML1 ag: 0.0; D2 potentiator: -5; PINK1 modulator: 1.3%; Six1-Eya2 blk: -1; D2 agonist: -0.9

Part of the list above in order of molecular weight, high to low.
How did Cc1ccccc1Cn1cc(S(=O)(=O)c2ccc(C(C)C)cc2)c(=O)c2cc3c(cc21)OCO3 do in these assays?
TRPML1 blocker: -10; TRPML1 ag: 0.6; D2 potentiator: -1; PINK1 modulator: 2.8%; Six1-Eya2 blk: -4; D2 agonist: 1.0

How did CC1=Nc2cc(C(=O)NCc3ccccc3Cl)ccc2Sc2c(C)ccc(C)c21 do in these assays?
TRPML1 blocker: -11; TRPML1 ag: 1.8; PINK1 modulator: 0.9%

Results for COc1ccc(C(=O)NC2CC(C)(C)Cc3c2cnn3-c2ccccc2)c(OC)c1 (configuration not stated) ?
TRPML1 blocker: -5; TRPML1 ag: 5.0; D2 potentiator: 12; PINK1 modulator: 8.0%; Six1-Eya2 blk: -3; D2 agonist: 1.5

Remaining list, next part.
How did S=C(Nc1cc(Cl)ccc1Oc1ccccc1)N1CCN(c2ccccn2)CC1 do in these assays?
TRPML1 blocker: 38; TRPML1 ag: 1.5; D2 potentiator: -5; PINK1 modulator: 6.2%; Six1-Eya2 blk: -8; D2 agonist: -1.4

Results for NC(=O)C1CCN(C(=O)c2ccc(F)c(S(=O)(=O)N3CCOCC3)c2)CC1 ?
TRPML1 blocker: -10; TRPML1 ag: 0.1; D2 potentiator: 8; PINK1 modulator: 0.5%; Six1-Eya2 blk: -4; D2 agonist: 1.7

Results for CCN(CC)S(=O)(=O)c1ccc2c(c1)N(CC(=O)N1CCN(c3ccc(F)cc3)CC1)C(=O)CO2 ?
TRPML1 blocker: -11; TRPML1 ag: 0.6; PINK1 modulator: 0.9%

Results for CCO[C@@H]1OC(C(=O)NCc2ccccc2)=C[C@H](c2ccc(Br)cc2)[C@H]1CCCO ?
TRPML1 blocker: 26; TRPML1 ag: -0.6; D2 potentiator: -8; PINK1 modulator: -0.1%; Six1-Eya2 blk: -1; D2 agonist: -0.5

How did CC(C)C[C@@H](CO)N1CCN(Cc2cccnc2)CCC1=O do in these assays?
TRPML1 blocker: -7; TRPML1 ag: -0.2&-0.2; D2 potentiator: 0; PINK1 modulator: 2.4%; Six1-Eya2 blk: 15; D2 agonist: -3.5

Results for COC(=O)c1cc(C(=O)NCc2ccccc2)c(=O)[nH]c1C ?
TRPML1 blocker: -2; TRPML1 ag: -0.3; D2 potentiator: 8; PINK1 modulator: 6.5%; Six1-Eya2 blk: -1; D2 agonist: -0.3

How did CCCCCC(=O)Nc1ccc(S(=O)(=O)NC2=NCCCCC2)cc1 do in these assays?
TRPML1 blocker: 1; TRPML1 ag: -0.1; D2 potentiator: -1; PINK1 modulator: 0.4%; Six1-Eya2 blk: -1; D2 agonist: 0.0

Results for O=C(Nc1cccs1)Nc1ccc(Br)cc1F ?
TRPML1 blocker: 4; TRPML1 ag: -0.2; D2 potentiator: -12; PINK1 modulator: inconclusive; Six1-Eya2 blk: -8; D2 agonist: -2.5

Results for O=C(NCCc1csc(-c2ccccc2)n1)c1cccs1 ?
TRPML1 blocker: -9; TRPML1 ag: -0.4; D2 potentiator: -8; PINK1 modulator: -2.2%; Six1-Eya2 blk: 2; D2 agonist: -4.2

Results for O=C(NCCCN1CCOCC1)c1coc2ccccc2c1=O ?
TRPML1 blocker: 31; TRPML1 ag: -1.2; D2 potentiator: 9; PINK1 modulator: -0.6%; Six1-Eya2 blk: -3; D2 agonist: -2.4

Results for COCCn1c(SCC(=O)Nc2ccc(NC(C)=O)cc2)nc2ccccc2c1=O ?
TRPML1 blocker: 12; TRPML1 ag: -1.3; D2 potentiator: -7; PINK1 modulator: 8.2%; Six1-Eya2 blk: 10; D2 agonist: -3.0

Results for CC(=O)c1c(N=CN(C)C)nc(C)nc1-c1ccccc1 ?
TRPML1 blocker: -6; TRPML1 ag: -0.3; D2 potentiator: -5; PINK1 modulator: -1.4%; Six1-Eya2 blk: 9; D2 agonist: -0.4

What do the screens show for `CCN(CC)S(=O)(=O)c1ccc(C)c(NC(=O)CNc2cccc(S(=O)(=O)N3CCOCC3)c2)c1`?
TRPML1 blocker: -6; TRPML1 ag: -0.9; D2 potentiator: 4; PINK1 modulator: 6.6%; Six1-Eya2 blk: 2; D2 agonist: 0.8

What do the screens show for `COc1ccc(OC)c(CCNC(=O)C(=O)Nc2ccc3nc4n(c(=O)c3c2)CCCCC4)c1`?
TRPML1 blocker: 3; TRPML1 ag: 0.9; D2 potentiator: -15; PINK1 modulator: 0.2%; Six1-Eya2 blk: -19; D2 agonist: -4.5

What do the screens show for `S=c1[nH]nc(-c2ccccn2)n1/N=C/c1ccco1`?
TRPML1 blocker: -4; TRPML1 ag: 0.0; D2 potentiator: -7; PINK1 modulator: -0.4%; Six1-Eya2 blk: -74*; D2 agonist: 2.1

Results for COc1ccc(OC)c(S(=O)(=O)N2CCC3(CC2)OCCN3S(=O)(=O)c2ccccc2)c1 ?
TRPML1 blocker: 47; TRPML1 ag: 1.5; D2 potentiator: -5; PINK1 modulator: -0.1%; Six1-Eya2 blk: -2; D2 agonist: 3.7

How did CCS(=O)(=O)n1nc(C(=O)N2CCOCC2)nc1N do in these assays?
TRPML1 blocker: -16; TRPML1 ag: 0.4; D2 potentiator: -6; PINK1 modulator: -1.2%; Six1-Eya2 blk: 0; D2 agonist: -1.6

How did CCS(=O)(=O)N1CCN(Cc2ccncc2)CC1 do in these assays?
TRPML1 blocker: -13; TRPML1 ag: 0.5; D2 potentiator: -2; PINK1 modulator: inconclusive; Six1-Eya2 blk: 0; D2 agonist: -2.2

What do the screens show for `CCCNC(=O)CN(CCc1ccccc1)S(C)(=O)=O`?
TRPML1 blocker: 32; TRPML1 ag: 4.0; D2 potentiator: -7; PINK1 modulator: 1.8%[38.3 µM]; Six1-Eya2 blk: 0; D2 agonist: -2.4

How did CCc1c(C)sc2c1CCN(C(=O)Nc1ccc(F)c(Cl)c1)C2c1ccc(F)cc1 (configuration not stated) do in these assays?
TRPML1 blocker: 21; TRPML1 ag: -0.2; PINK1 modulator: inconclusive

Results for Cc1ccc(S(=O)(=O)N2CCC(C(=O)OCC(=O)N(C)Cc3ccccc3)CC2)cc1C ?
TRPML1 blocker: -28; TRPML1 ag: -0.2; D2 potentiator: -14; PINK1 modulator: -2.3%; Six1-Eya2 blk: 0; D2 agonist: 3.6

Results for O=C(OCCN1C(=O)c2ccccc2C1=O)c1cc(=O)[nH]c2ccccc12 ?
TRPML1 blocker: 9; TRPML1 ag: 0.4; D2 potentiator: -1; PINK1 modulator: 2.1%; Six1-Eya2 blk: -17; D2 agonist: 0.0

Results for CC(=O)N=c1sc(S(N)(=O)=O)nn1C ?
TRPML1 blocker: -2; TRPML1 ag: -1.0; D2 potentiator: 4; PINK1 modulator: 3.8%; Six1-Eya2 blk: 6; D2 agonist: -2.5

How did Cc1cc(C)cc(NC(=O)c2cc(S(=O)(=O)N3CCCCC3)c[nH]2)c1 do in these assays?
TRPML1 blocker: 2; TRPML1 ag: 1.2; PINK1 modulator: 0.7%

What do the screens show for `COc1ccc(Cl)cc1C(=O)Nc1ccc(CN2CCCCC2)cc1`?
TRPML1 blocker: 14; TRPML1 ag: 0.7; D2 potentiator: -18; PINK1 modulator: 3.3%; Six1-Eya2 blk: -3; D2 agonist: -2.1

How did COC(=O)c1[nH]c2cccc(C)c2c1NC(=O)CN1CCN(c2ccccc2OC)CC1 do in these assays?
TRPML1 blocker: 20; TRPML1 ag: -0.3; D2 potentiator: -12; PINK1 modulator: 1.1%; Six1-Eya2 blk: 0; D2 agonist: 2.0

How did COc1ccccc1N1CCN(S(=O)(=O)c2ccc(-c3coc(C)n3)cc2)CC1 do in these assays?
TRPML1 blocker: 2; TRPML1 ag: 2.2; PINK1 modulator: -0.6%
